# Source: PubChem (several laboratories)
# MT1-MMP promoter = inhibitors of MT1-MMP promoter transcription, cell-based, luciferase reporter, luminescence (AID 618) | MT1-MMP promoter luciferase reporter cells, luminescence | calls from a first round at 10 µM; hits with a dose series show EC50 in µM | hit rate 0.62% among 87,000;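 active = over half of the reporter light lost at 10 µM or EC50 under 50 µM; inactive = the rest and hits that failed the dose series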;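 also: actives suppress MT1-MMP promoter-driven transcription so potencies describe inhibitors; HT1080 fibrosarcoma cells; overnight exposure; toxic or luciferase-blocking compounds were not removed from the actives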
# Hsc70 ATP site = Hsc70 inhibitors, probe displacement, primary screen, biochemical, fluorescence polarization (AID 568); Heat shock cognate 71 kDa protein (Homo sapiens); Hsc70 fluorescence polarization, probe displacement; higher % means a stronger effect; strong numbers were not always called active; one-dose displacement, % at 20 µM; IC50 in µM for titrated hits; 83,000 tested, under 10 active;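 active = displacement above 50% without optical interference and an IC50 on retest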;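 also: ATPase domain with a fluorescein-tagged ATP probe; 0% = vehicle and 100% = excess ADP; read after one hour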
# WNV NS2B-NS3 inh = inhibitors of WNV NS2B-NS3 protease, primary screen, biochemical, fluorogenic substrate. fluorogenic substrate Ex360/Em465; hits give low values. z-score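 (tested at a level between 10 and 100 µM)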. hit rate 0.18% among 65,000. AID 577, 2007;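 active = z-score at -3 or under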;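 also: score is relative to mean and spread of the compound wells of a plate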
# Target sequence (P06935 1371-1501 limits assumed): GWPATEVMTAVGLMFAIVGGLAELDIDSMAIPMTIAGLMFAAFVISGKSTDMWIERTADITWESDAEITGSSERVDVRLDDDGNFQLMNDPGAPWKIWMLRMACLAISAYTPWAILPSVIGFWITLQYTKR
# Target sequence (P06935 1502-1679 limits assumed): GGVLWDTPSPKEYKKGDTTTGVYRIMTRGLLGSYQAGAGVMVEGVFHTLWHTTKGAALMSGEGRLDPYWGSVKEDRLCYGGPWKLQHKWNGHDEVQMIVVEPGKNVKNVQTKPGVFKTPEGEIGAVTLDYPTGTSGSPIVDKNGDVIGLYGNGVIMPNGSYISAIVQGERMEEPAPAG
# * marks the source's active call; other numbers are inactive results; i = inactive; nt = no result given.
# Values run as follows: MT1-MMP promoter, Hsc70 ATP site, WNV NS2B-NS3 inh
O=C(NCC1COc2ccccc2O1)c1ccco1 (centres undefined)
 : i, -6.1%, -0.91
Cc1ccc2[nH]c(=O)c(CN(Cc3ccccc3Cl)C(=O)N3CCOCC3)cc2c1
 : i, -4.6%, 0.96
Cc1noc(C)c1CN1C(=O)NC2(CCc3ccccc3C2)C1=O (centres undefined)
 : i, -3.6%, 0.72
CCCCCC(=O)Nc1ccc(N2CCN(C(=O)CCC)CC2)cc1
 : i, -1.0%, 0.65
Oc1oc(-c2ccccc2)nc1C=NCc1ccncc1
 : i, -2.7%, -0.66
O=C(C1CCCN(S(=O)(=O)c2cccc3nonc23)C1)N1CCN(c2ccccc2)CC1 (centres undefined)
 : i, 1.5%, nt
O=C(NCc1ccc(N2CCCC2=O)cc1)Nc1ccccc1
 : i, 0.7%, -1.1
Cc1noc(NS(=O)(=O)c2ccc(NC(=O)CCCOc3ccc(Cl)cc3Cl)cc2)c1C
 : i, 1.6%, nt
COC(=O)[C@H](Cc1ccccc1)NC(=O)NCCC1=CCCCC1
 : i, 3.6%, nt
O=C(Nc1nccs1)C1CCN(S(=O)(=O)c2cnc[nH]2)CC1
 : i, 1.8%, 1
CCC(C)NS(=O)(=O)c1ccc(S(=O)(=O)N(CC(=O)Nc2ccccc2)CC2CCCO2)cc1 (centres undefined)
 : i, 0.7%, nt
COc1ccc(C2=NOC3(CC(=O)N(c4ccc(C)cc4)C3=O)C2)c(OC)c1 (centres undefined)
 : i, -1.9%, 0.19
COc1cc(NC(=O)CCn2c(=O)[nH]c3ccsc3c2=O)cc(OC)c1
 : i, 3.2%, 0.24
CC(=O)NC1=NC(=O)C(C)S1 (centres undefined)
 : i, -4.0%, nt
Cc1cc(NC(=O)CCC(=O)N(CC(=O)NCC2CCCO2)c2ccccc2C)no1 (centres undefined)
 : i, 2.6%, nt
CC1C2C(c3ccccc3)N(C)C(=O)N(C)C2N(C)C(=O)N1C (centres undefined)
 : i, 41%, -1
CCN(CC)c1ccc(NC(=O)c2cccc(F)c2)c(C)c1
 : i, 1.3%, nt
O=C(CSCc1cccs1)N1CCCC1
 : i, -0.9%, -1
CC(=O)c1cnc2c(-c3ccc(Cl)cc3)c(C)nn2c1C
 : i, 7.6%, nt
C=CCn1cnc2c(c1=O)c1nc3ccccc3nc1n2/N=C/c1cccc(OC)c1
 : i, -2.0%, -0.06

# Copied from the list:
# COc1ccc(C2=NOC3(CC(=O)N(c4ccc(C)cc4)C3=O)C2)c(OC)c1 (centres undefined) – Hsc70 ATP site: -1.9%
# CCC(C)NS(=O)(=O)c1ccc(S(=O)(=O)N(CC(=O)Nc2ccccc2)CC2CCCO2)cc1 (centres undefined) – Hsc70 ATP site: 0.7%
# CC(=O)NC1=NC(=O)C(C)S1 (centres undefined) – Hsc70 ATP site: -4.0%

# New compounds follow
# Values run as follows: MT1-MMP promoter, Hsc70 ATP site, WNV NS2B-NS3 inh
Cc1ccccc1N=C(NOCc1ccc(Cl)cc1Cl)c1nonc1N
 : i, 5.4%, nt
CC1(c2ccccc2)CC2CC(c3ccccc3)N1O2 (centres undefined)
 : i, 4.6%, nt
C=CCNc1nc2c(c(=O)n(C)c(=O)n2C)n1CC(=C)C
 : i, 1.5%, 0.95
Brc1ccc(C2=Nn3c(nnc3-c3ccncc3)SC2)cc1
 : i, -4.5%, 0.87
Cn1cnc([N+](=O)[O-])c1Nc1ccc(O)cc1
 : i, -0.2%, nt
c1ccc(-c2ccc(-c3nc(-c4ccncc4)no3)cc2)cc1
 : 9µM*, 4.2%, -1
CCc1c(C)sc(NC(=O)c2cccs2)c1C(=O)OC(C)C
 : i, 7.5%, 1.6
CC1CCN(C(=O)C2CCN(S(=O)(=O)c3cccnc3)CC2)CC1
 : i, 2.6%, nt
CS(=O)(=O)Nc1ccc(C(=O)Nc2ccc3c(c2)OCCO3)cc1
 : i, 5.5%, nt
Cc1cccnc1Nc1nc(-c2ccc(O)c(O)c2)cs1
 : i, 0.0%, nt
O=C(NCc1ccc2c(c1)OCO2)c1cccc(F)c1
 : i, -2.9%, -0.62
O=C(Cn1c(SCC(=O)N2CCCc3ccccc32)nc2ccccc21)N1CCCC1
 : i, 2.2%, 0.52
O=C(c1cc2c(ccc3ccccc32)oc1=O)N1CCCC1
 : i, 1.7%, nt
COc1cc2c(cc1OC)C1(Nc3c-2c(Cc2ccccc2)nn3-c2ccccc2)C(=O)Nc2ccccc21 (centres undefined)
 : i, -10%, nt
CC(C)C(c1nnnn1Cc1ccco1)N1CCC(C(N)=O)CC1 (centres undefined)
 : i, -1.5%, nt
CCCCc1nnc(NC(=O)CS(=O)(=O)Cc2ccccc2)s1
 : i, 3.4%, nt
COc1ccc(NC(=O)c2nnn(Cc3ccc(SC)cc3)c2N)c(OC)c1
 : i, 1.9%, 0.36
Cc1ccc(C(=O)/C=C2\NCCNC2=O)cc1
 : i, 2.0%, nt
COC(=O)C(C(=O)OC)=C(/C=C/N(C)C)N(C)C
 : i, -10%, -0.79
Cc1ccc(/C=c2\s/c(=C(/C#N)C(=O)N3CCCC3)n(Cc3ccco3)c2=O)s1
 : i, -32%, -0.46
O=C(c1cc(S(=O)(=O)N2CCCCC2)ccc1F)N1CCCCC1
 : i, 2.8%, 0.16
COc1ccc(CN(C(=O)c2oc3ccccc3c2C)C2CCS(=O)(=O)C2)cc1OC (centres undefined)
 : i, 6.4%, 0.57
O=C1CSC(c2cn(-c3ccccc3)nc2-c2cc3ccccc3oc2=O)N1Cc1ccco1 (centres undefined)
 : i, -2.0%, -1.8
Cc1cc(C)n2nc(S(=O)(=O)NC3CCCCC3)nc2n1
 : i, -4.8%, 1.8
O=C(O)CCc1nc(-c2ccccc2)no1
 : i, 0.1%, 1.1
CCCC(=O)Nc1ccc(N2CCN(C(=O)c3cccs3)CC2)cc1
 : i, -4.8%, 1.6
CCCCOc1ccccc1NC(=O)CSc1nnnn1C(C)(C)C
 : i, 0.3%, -0.71
COc1ccc(C2C(C#N)=C(N)Oc3c2oc(CO)cc3=O)c(OC)c1OC (centres undefined)
 : i, 6.7%, -0.0022
COCCCn1c(=N)c(C(=O)NCc2ccc3c(c2)OCO3)cc2c(=O)n3cccc(C)c3nc21
 : i, -0.1%, 1
CN1c2ccsc2C(O)=C(C(=S)Nc2ccc(F)c(Cl)c2)S1(=O)=O
 : i, -0.1%, nt
O=C(Nc1cc(Cl)ccc1N1CCCCC1)c1cccs1
 : i, 4.2%, nt
COC(=O)COc1ccc2c(=O)c(Oc3ccccc3)c(C)oc2c1
 : i, 9.9%, -0.49
CCOc1nc(NC(C)C)nc(NC(C)C)n1
 : i, 0.8%, nt
CCOC(=O)c1cnn(-c2cc(C)nc3c(-c4ccccc4)c(C)nn23)c1N
 : i, 3.9%, 0.45
COc1ccccc1NC(=O)Nc1c(C)n(C)n(-c2ccccc2)c1=O
 : i, 0.7%, 0.01
COc1ccccc1CC(=O)Nc1ccc(O)cc1C(=O)O
 : i, -0.3%, 0.66
O=C(CSc1ccccc1C(=O)O)NC1CCCCCCC1
 : i, -0.4%, nt
C/C=C/c1ccc(OCCCN2C(=O)NC(C)(C)C2=O)c(OC)c1
 : i, -7.0%, -0.29
CCN(CC)S(=O)(=O)c1ccc(F)c(C(=O)NCCC(C)C)c1
 : i, -4.0%, 0.14
CCNc1c2c3c(cccc3n(C)c1=O)C(=O)c1ccccc1-2
 : i, 94%, 0.37
CCCc1cc(N2CCCC(C(=O)NCc3ccc4c(c3)OCO4)C2)n2ncnc2n1 (centres undefined)
 : i, -0.7%, 1.1
CCOCC(=O)Nc1nc2ccc(S(C)(=O)=O)cc2s1
 : i, 3.0%, -0.82
COc1ccccc1CNC(=O)CSc1nc(N)c(C#N)c(-c2cccs2)c1C#N
 : i, 0.7%, nt
CN(C)C(=O)CCN1CCOCC1
 : i, -7.2%, nt
O=C(CSc1ncnc2c1nnn2-c1ccc(F)cc1)NCC1CCCO1 (centres undefined)
 : i, -1.7%, -0.35
COc1ccccc1NC(=O)CSc1ccc2nnc(-c3ccccn3)n2n1
 : i, 8.0%, 0.47
CCCCCc1c(C)nc(NCc2ccccc2)[nH]c1=O
 : i, -7.0%, -0.15
Cc1ccc(NC(=O)CSc2nnc(-c3cnccn3)n2Cc2ccco2)cc1C
 : i, -3.6%, 0.35
O=C(CSc1ncnc2ccccc12)N1CCCC1
 : i, 3.3%, -0.59
CCCc1nnc(NC(=O)c2c(O)c3cccc4c3n(c2=O)CCC4)s1
 : i, -1.7%, -0.46
CC(=NCC1CCCO1)c1c(O)[nH]c(=O)[nH]c1=O (centres undefined)
 : i, -1.1%, 0.22
CN(C(=O)c1cccc(Nc2ccc(-c3ccc4c(c3)OCCO4)nn2)c1)C1CCCCC1
 : i, -5.4%, nt
O=C(O)c1ccc(S(=O)(=O)N2CCCCCC2)cc1
 : i, 2.6%, nt
N#CCCN(CCC#N)c1nnc(-c2ccccc2)s1
 : i, -0.6%, 0.43
CCOc1ccc2c(c1)-c1c(ssc1=S)C(C)(C)N2C
 : i, -2.2%, nt
C/C=C(\C)CN1CCc2cc(OC)c(OC)cc2C1
 : i, 0.2%, 0.46
Cc1ccc(SCCC(=O)N(C)C)cc1
 : i, 3.5%, -0.14
CCOc1cc(CNc2ncc(-c3ccc(OC)cc3)n2C)ccc1O
 : i, 2.1%, -1.1
CCCCOC(=O)C1=C(C)Nc2ncnn2C1c1cccc(OC)c1 (centres undefined)
 : i, -2.4%, -0.41
O=C(Nc1ccc(-n2cnnn2)cc1)C1CCC1
 : i, 4.1%, -0.78

# Next part
# Values run as follows: MT1-MMP promoter, Hsc70 ATP site, WNV NS2B-NS3 inh
Cc1cc(NC(c2ccc(Cl)cc2)c2ccc3cccnc3c2O)no1 (centres undefined)
 : i, -0.4%, nt
COC(=O)C1=C(C)N(C)C(C)=C(C(=O)OC)C1c1ccc(C(=O)OC)cc1
 : i, 4.5%, 1.7
O=C(CSc1nnc(-c2c[nH]c3ccccc23)o1)N(Cc1ccccc1)c1ccc(F)cc1
 : i, 0.7%, 0.21
N#Cc1c(SCc2ccccc2)sc(C(=O)c2ccccc2)c1N
 : i, 3.5%, nt
O=C1CC(c2ccco2)CC(O)=C1C=Nc1cc(Cl)ccc1O (centres undefined)
 : i, -5.6%, -1.1
O=C(NC1CC1)c1ccc(CS(=O)(=O)c2c(Cl)cccc2Cl)o1
 : i, 0.0%, 0.58
O=C1NC(NS(=O)(=O)c2ccccc2)(C(F)(F)F)C(=O)N1Cc1cccnc1 (centres undefined)
 : i, 4.2%, -0.69
c1csc(C(c2nnnn2C2CCCCC2)N2CCN(c3nc4ccccc4s3)CC2)c1 (centres undefined)
 : i, 0.6%, nt
Cc1cc(C(C)(C)C)ccc1OCCN(C)C
 : i, 3.3%, -0.28
Cn1nc(-c2ccc(C(=O)Nc3cccc(Cl)c3)cc2)c2ccccc2c1=O
 : i, -3.7%, nt
CCCCNS(=O)(=O)c1ccc2nc(SCC(=O)c3ccc(C#N)cc3)[nH]c2c1
 : i, 3.5%, -0.99
CCOC(=O)c1ccc(NC(=O)CS(=O)(=O)c2cn(CC)c3ccccc23)cc1
 : i, -3.3%, -0.43
CCOc1ccc(N2C(=O)CC(SCCN)C2=O)cc1 (centres undefined)
 : i, 5.3%, -0.68
O=C(NC1CCCCC1)N1CCN(Cc2nc3ccccc3c(=O)[nH]2)CC1
 : i, 9.5%, 0.16
CCCc1nc2sc3c(c2c(=O)n1NC(=O)CCCl)CCCC3
 : i, 0.3%, nt
CCn1c(=O)c(-c2ccccc2)c(O)c2ccccc21
 : i, 0.3%, 1.1
O=C(NC1CCCC1)C(c1ccccc1)N(Cc1ccco1)C(=O)Cc1cccs1 (centres undefined)
 : i, 0.8%, nt
COCc1nc2ccccc2n1CCCOc1ccccc1
 : i, 6.5%, 1
C=CCn1c(SCC(=O)Nc2ccc(N(C)C)cc2)nnc1-c1cccc(C)c1
 : i, 4.0%, -0.42
COCC(=O)Nc1nnc(COc2ccc(Cl)cc2)s1
 : i, 3.3%, nt

# Retrieved by structure from the entries so far:
# Values run as follows: MT1-MMP promoter, Hsc70 ATP site, WNV NS2B-NS3 inh
COC(=O)C1=C(C)N(C)C(C)=C(C(=O)OC)C1c1ccc(C(=O)OC)cc1
 : i, 4.5%, 1.7
CCCc1nc2sc3c(c2c(=O)n1NC(=O)CCCl)CCCC3
 : i, 0.3%, nt

# Other compounds.
# Values run as follows: MT1-MMP promoter, Hsc70 ATP site, WNV NS2B-NS3 inh
C1=CCC(/C=N/n2cnnc2)CC1 (centres undefined)
 : i, -0.6%, 0.24
CCOc1ccc(-c2nnn(CC(=O)Nc3cc(OC)cc(OC)c3)n2)cc1OCC
 : i, -0.2%, -0.26
CCn1c(SCC(=O)Nc2ccc(C(=O)OC)cc2)nc2cccnc21
 : i, -1.2%, nt
Cc1nc2ccccc2c(=O)n1NC(=O)Cc1ccc(Br)cc1
 : i, -1.3%, nt
COc1ccc(/C(O)=C2/C(=O)C(=O)N(CCN3CCOCC3)C2c2cccnc2)cc1OC (centres undefined)
 : i, -2.0%, -0.37
CNC(=O)c1ccccc1-c1ccccc1
 : i, -7.0%, 1
c1ccc(-n2c(-c3ccncc3)nnc2-c2ccco2)cc1
 : i, 3.9%, -1.4
c1ccc(Oc2cccc(OCCCCSc3ncccn3)c2)cc1
 : i, -5.2%, nt
COc1cc(C(C)=O)ccc1OCC(=O)c1cc(C)n(C2CC2)c1C
 : i, 1.5%, -0.41
CC1CCC(C(C)C)C(OC(=O)CSc2n[nH]c(=O)[nH]c2=O)C1 (centres undefined)
 : i, -6.4%, 0.45
